# Rango-impB inh – qHTS Assay for Inhibitors of Rango (Ran-regulated importin-beta cargo) - Importin beta complex formation; Importin subunit beta-1 (Homo sapiens), Q14974; Rango CFP/YFP FRET sensor + importin beta, 45 min; Potency, µM (series often up to 92.2 µM), inactives show at the top dose inhibition of complex formation; 0.031% of 340,000 active; AID 540263, 2011; active = rising FRET ratio curve, often small or poorly fitted; inconclusive = mostly compound fluorescence or quenching in the first reads; inactive = flat curves in all reads;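 also: potency is read from the fitted curve at half-maximal effect; 0% = DMSO wells and 100% = buffer wells lacking importin beta; nearly all actives have a fitted effect of over 15% in size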
# Target sequence (Q14974 whole entry, looked up): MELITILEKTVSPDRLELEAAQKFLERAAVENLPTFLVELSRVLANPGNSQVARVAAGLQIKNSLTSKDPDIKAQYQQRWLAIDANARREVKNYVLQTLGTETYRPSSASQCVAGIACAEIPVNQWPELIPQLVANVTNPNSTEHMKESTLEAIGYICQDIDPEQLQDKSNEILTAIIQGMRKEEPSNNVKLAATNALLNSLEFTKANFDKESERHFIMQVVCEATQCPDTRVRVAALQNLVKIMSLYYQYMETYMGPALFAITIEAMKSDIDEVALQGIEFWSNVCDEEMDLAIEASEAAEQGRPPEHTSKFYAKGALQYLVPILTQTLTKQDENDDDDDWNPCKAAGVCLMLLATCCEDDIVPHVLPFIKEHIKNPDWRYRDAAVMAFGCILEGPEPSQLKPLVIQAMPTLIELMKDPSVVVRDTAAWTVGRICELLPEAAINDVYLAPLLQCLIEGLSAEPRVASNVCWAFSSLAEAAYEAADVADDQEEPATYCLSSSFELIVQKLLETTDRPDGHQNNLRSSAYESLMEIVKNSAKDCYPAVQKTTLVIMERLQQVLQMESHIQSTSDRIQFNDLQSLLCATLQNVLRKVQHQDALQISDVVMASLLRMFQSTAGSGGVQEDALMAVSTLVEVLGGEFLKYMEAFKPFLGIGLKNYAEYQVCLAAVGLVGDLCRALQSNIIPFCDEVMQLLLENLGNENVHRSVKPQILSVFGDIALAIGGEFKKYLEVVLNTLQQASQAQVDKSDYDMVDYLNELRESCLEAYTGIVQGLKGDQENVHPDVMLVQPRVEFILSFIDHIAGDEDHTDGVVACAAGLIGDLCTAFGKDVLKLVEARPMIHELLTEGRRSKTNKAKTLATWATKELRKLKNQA
#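 FRET biosensor Rango (snurportin 1 IBB between N-terminal EYFP and C-terminal Cerulean), 50 nM in PBS/1 mM DTT/0.02% Tween-20/0.1% BSA, preincubated 5 min RT with compound; 0.125 microM importin beta added, 45 min RT, CFP/YFP FRET ratio read.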
# miR-21 reporter – qHTS Assay for Modulators of miRNAs and/orActivators of miR-21; HeLa miR-21 FLuc reporter, luciferase, 48 h; 340,000 tested, under 10 active; Potency, µM (highest dose often 38.3 µM), inactives show at the highest dose reporter change, positive = more light; active = well fitted rising curve with a large enough effect; inconclusive = small, poorly fitted or top-dose-only effect; inactive = no such curve, though single readings can be large or run the other way;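 also: % of control where 0% means no effect; miR-21 action dims this reporter so a rising signal means less miR-21 action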
#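 Luminescence from a firefly luciferase reporter carrying a miR-21 binding site downstream, stably expressed under a CMV promoter in HeLa cells that make miR-21 endogenously, reports miRNA modulation after 48 h compound exposure up to approximately 40uM final.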
# GLA inh pH 4.5 – qHTS Assay for Inhibitors of Human alpha-Galactosidase at pH 4.5 | activity change, negative = inhibition, % at 105 µM | Alpha-galactosidase A (Homo sapiens), P06280 | purified enzyme, 4-MU-alpha-Gal fluorescence, pH 4.5 | 230,000 tested, under 10 active; inconclusive = small, poorly fitted or top-dose-only inhibition, or a rising curve; inactive = flat fitted curve, though single readings scatter; no compound was filed as active;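 also: 0% = full activity with enzyme and -100% = basal without enzyme; dose as in the result columns while the protocol names 77 µM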
# Rango release inh – qHTS Assay for Inhibitors of RanGTP induced Rango (Ran-regulated importin-beta cargo) - Importin beta complex dissociation; Snurportin-1 (Homo sapiens) + GTP-binding nuclear protein Ran (Homo sapiens) + Importin …; Biochemical FRET Rango-importin beta, RanGTP-induced dissociation; Potency, µM (highest dose often 46.1 µM), inactives show at the highest dose activity change, negative = inhibition; 0.071% of 340,000 active; AID 540253, 2011; active means falling FRET ratio curve, often poorly fitted, with flat reads before Ran was added; inconclusive means other falling curves, or compound fluorescence or quenching; inactive means flat or rising ratio curve;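 also: potency is read from the fitted curve at half-maximal effect; % of control where 0% means no effect; nearly all actives have a fitted effect of over 45% in size; -100% = wells without RanGTP and RCC1; the record marks most hits as doubtful in a second field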
#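 Rango/importin beta premix (0.1/0.25 uM final), PBS + 1 mM DTT + 0.02% Tween-20 + 0.1% BSA; cpd 5 min RT; FRET pre-read; + RanGTP-RCC1 (0.6 uM Ran, 2 mM GTP, 0.2 uM RCC1); 45 min RT; FRET post-read, ex 430, em 486/530 nm.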
# An asterisk follows results filed as active; u = inconclusive; x = no result given; & = joins results of further samples; [ ] = remark or other dose. Not all compounds are listed; rates above refer to the full screens.
# Results follow in this order: miR-21 reporter, Rango-impB inh, Rango release inh, GLA inh pH 4.5
CCC(C)[C@H](NC(=O)N1CCn2c1nc1ccccc12)C(=O)NCCc1ccc(OC)c(OC)c1 (stereo partly drawn)
  8%, 4.4%, -12%, x
CCOC(=O)c1ccc(NC(=S)N(CCCN2CCCC(C)C2)Cc2cccs2)cc1 (stereo not drawn)
  0%, 5.5%, 0%, -8
Cc1ccc(CN2CCSc3ccc(C(=O)NC4CCCC4)cc32)cc1
  -1%, u, -12%, x
COc1ccccc1C(O)Cc1nc2ccccc2n1C (stereo not drawn)
  -56%, 2.5%, 0%, 8
CC(C)NC(=O)N(C)C[C@H]1Oc2ccc(NC(=O)Nc3ccccc3)cc2C(=O)N([C@H](C)CO)C[C@@H]1C
  x, 2.8%, 1%, x
CN(CC(=O)Nc1ccccc1Sc1ccccc1)Cc1nc2ccccc2c(=O)[nH]1
  15%, -1.0%, 15%, -2
CCOC(=O)N1CCC(NC(=O)CCc2nc(-c3ccc(C)cc3)no2)CC1
  3%, 4.0%, 0%, 5
CCOc1ccc(NC(=O)C2CCCN(S(=O)(=O)c3cnc[nH]3)C2)cc1 (stereo not drawn)
  0%, -1.8%, 9%, x
Cn1c(SCC(=O)NC2CCCCC2)nnc1-c1cc2ccccc2o1
  -22%, 0.6%, -2%, -5
Cc1cc(-c2ccccc2)cc(-c2ccccc2)[n+]1C
  22%, -0.3%, 14%, 1
NC(=O)c1ccc(-n2nnnc2SCC(=O)Nc2ccccc2-c2ccccc2)cc1
  15%, 0.2%, 1%, -22
CCCCNC(=O)CCC(=O)Nc1ccc2nc(N3CCC(C)CC3)cc(C)c2c1
  -8%, u, -19%, 27[21.1 µM]
COc1cc2c(cc1OC)CN(C1CCCN(Cc3cccc(C(C)=O)c3)C1)CC2 (stereo not drawn)
  x, u, -5%, x
CN(C)S(=O)(=O)c1ccc(C(=O)NCCOc2ccccc2)cc1
  -37%, 3.9%, 5%, -6
O=C(CS(=O)(=O)c1cn(Cc2ccc(F)cc2)c2ccccc12)N1CCOCC1
  1%, 0.6%, -19%, 5
COc1ccc(NC(=O)C2=Cc3cccc(OC)c3OC2)cc1
  -49%, -1.5%, 6%, -8
O=C(Cc1nn[nH]n1)Nc1cc(Cl)cc(Cl)c1
  0%, -0.6%, 0%, x
COc1ccc2[nH]c3c(c2c1)CCN1C(=O)C(CC(=O)NC/C=C(\C)CCC=C(C)C)C[C@H](C(=O)N(C(C)C)C(C)C)[C@@]31C (stereo partly drawn)
  x, 5.7%, -4%, x
CC(C)N(CCNC(=O)C1CCC(=O)N1Cc1ccc(F)cc1)Cc1ccccc1 (stereo not drawn)
  -6%, -1.2%, -3%, -6
Cc1ccc(S(=O)(=O)N2CCOCC2)cc1NC(=O)CN1C(=O)NC(C)(c2ccc(Cl)cc2Cl)C1=O (stereo not drawn)
  x, -1.1%, -1%, x
CC(C)(C)c1ccc(OCCC(=O)Nc2cccc(S(=O)(=O)N3CCCCC3)c2)cc1
  23%, -0.9%, u, -7
CCCN(Cc1ccccc1)C(=S)NC(=O)c1ccccc1[N+](=O)[O-]
  2%, 0.7%, -3%, -20
CC(=O)NCC(=O)OCc1ccc([N+](=O)[O-])cc1
  -7%, -4.0%, 0%, -7
O=C(N/C(=C\c1ccco1)C(=O)N1CCCC1)c1ccccc1
  -5%, 0.5%, -19%, x
O=C(CSc1nc2ccccc2s1)Nc1ccc2c(c1)oc1ccccc12
  -27%, 3.8%, 2%, -4
OC(COc1ccccc1Cl)CN1CCN(CC(O)COc2ccccc2Cl)CC1 (stereo not drawn)
  10%, 4.4%, 14%, 0
COc1ccc(CN2CC(C(=O)NC3CCCCC3)CC2=O)cc1 (stereo not drawn)
  1%, 0.2%, -6%, x
COc1ccc(CCCc2nnc(SCC(=O)NN)o2)cc1
  -1%, 0.4%, 12%, -12
O=C(Nc1cc(C(=O)N2CCN(c3ccccc3O)CC2)ccc1Cl)c1cccs1
  x, 1.2%, -2%, x
CC(=O)Nc1ccc(N2CCOCC2)c(Cl)c1
  3%, -2.1%, -8%, 8
CCCCOc1cccc(NC(=O)CSc2nncn2C)c1
  -11%, 3.5%, 12%, -4
O=C(Nc1ccccc1N1CCOCC1)c1ccc(N2CCOCC2)c([N+](=O)[O-])c1
  -14%, -0.7%, 1%, -5
O=C(c1cc(-c2ccc(Br)cc2)on1)N1CCCCCC1
  -71%, 1.4%, -9%, x
CCc1ccc(C2=NN(C(C)=O)C(c3ccco3)C2)cc1 (stereo not drawn)
  -61%, -3.3%, 15%, -3
CCOC(=O)c1ccc(N2CCOCC2)c(NS(=O)(=O)c2ccc(F)cc2)c1
  -1%, 3.4%, -15%, x
C=CCNC(=O)c1ccccc1NC(=O)Cc1ccccc1[N+](=O)[O-]
  -1%, -0.1%, 6%, 5
CCC(=O)c1cn(CC(=O)Nc2ccccc2)c2ccccc12
  0%, 0.8%, 30%, x
NC(=O)c1ccc(NC(=O)Cc2cccs2)cc1
  -6%, u, -15%, x
COc1ccc(C(=O)Nc2c(N)nc(SCC(=O)N3CCC(C)CC3)[nH]c2=O)cc1
  -4%, 0.5%, 0%, x
Cc1ccc2c(c1)[C@H]1[C@H](CO2)[C@H](c2ccccc2)[C@]2(C)C(=O)N(Cc3ccccc3)CC(=O)N12
  x, 0.4%, -5%, x
Cc1cc(/C=C(/C#N)C(=O)Nc2ccc(Cl)cc2)c(C)n1-c1cccnc1
  -17%, u, -18%, 4
COc1ccccc1NC(=O)C(CC=C(Cl)Cl)C(C)=O (stereo not drawn)
  -12%, u, 3%, -16
C=CCOc1ccc(/C=C/C(=O)OCc2csc(CC(=O)Nc3ccccc3C)n2)cc1
  x, -3.6%, -17%, x
COc1ccccc1NC(=O)c1ccccc1S(=O)(=O)c1ccc([N+](=O)[O-])cc1
  0%, 0.5%, 1%, x
CCS(=O)(=O)N1CCCC(C(=O)NCCc2ccc(OC)c(OC)c2)C1 (stereo not drawn)
  -8%, -2.9%, 8%, 9
COc1ccc(CNC(=O)CN(C)Cc2ccccc2F)cc1OC
  -12%, 0.0%, -11%, x
COc1ccc(C(=O)CCN2CCN(c3ccccc3OC)CC2)cc1
  1%, -1.3%, -2%, -3
Cc1ccc(S(=O)(=O)N(C(=O)c2ccco2)c2cc3sc(=O)oc3c3ccccc23)cc1
  12%, -5.5%, -19%, -19
COc1ccc(-c2nc3n(c(=O)c2C#N)CCCS3)cc1
  -26%, 0.8%, 5%, -4
COc1ccc(-c2noc(N3CCC(C(=O)NCc4ccc(F)cc4)CC3)n2)cc1
  -1%, 8.5%, -8%, x
COc1ccc(CCN2CC(C(=O)NCCN3CCOC3=O)CCC2=O)cc1 (stereo not drawn)
  0%, -3.2%, 5%, x
CCc1ccc(N(C(C)=O)C2C=CS(=O)(=O)C2)cc1 (stereo not drawn)
  -3%, -5.7%, -7%, 5
O=C(OCC(=O)N1CCc2ccccc21)c1ccc([N+](=O)[O-])cc1
  x, 0.0%, -3%, x
CCN(CC)S(=O)(=O)c1cccc(C(=O)NC(C(=O)NC2=NCCS2)C(C)C)c1 (stereo not drawn)
  -2%, -4.1%, 0%, 4
C=CCn1c(Oc2cc(C)ccc2C)nc2c1c(=O)n(C)c(=O)n2C
  -1%, -0.6%, 3%, -3
CCOC(=O)c1ccc[n+](CC(=O)c2ccc(NC(=O)c3ccccc3)cc2)c1
  -3%, -0.9%, 18%, x
CCN(CCNC(=O)c1ccc(C#N)cc1)c1cccc(C)c1
  -4%, 2.6%, -11%, x
Cc1nc2c(=O)n(C)c(=O)[nH]c2n1Cc1ccccc1
  4%, 1.2%, -4%, 7
O=C(Nc1cnc2sccn2c1=O)c1ccc(Cl)cc1Cl
  -38%, -2.5%, -12%, -5
CCn1nc(C(=O)Nc2nc(-c3ccccn3)cs2)c2ccccc2c1=O
  x, -0.2%, -15%, x

# Continuation.
# Results follow in this order: miR-21 reporter, Rango-impB inh, Rango release inh, GLA inh pH 4.5
COc1ccccc1[C@@H]1C(c2ccc(F)cc2)=NN(c2ccccc2)[C@H]1C(=O)N1CCOC1=O
  0%, u, u, -9&25
O=C(c1cc(-c2ccc(F)cc2)nc2ccccc12)N1CCN(C2CCS(=O)(=O)C2)CC1 (stereo not drawn)
  x, 2.4%, 0%, x
C/C(=N\NC(=O)CNc1ccccc1)c1ccccc1
  1%, 0.3%, 29%, -5
CCN(CC)S(=O)(=O)c1ccc(OC)c(NS(=O)(=O)c2cccc(C(=O)O)c2)c1
  -1%, 0.4%, 0%, 6
CCCCc1nc2ccccc2c(N)c1CCC (tested in a mixture with another compound)
  u, -2.2%, 4%, 9
CC1CC(C)(C)CC2(C1)NC(=O)N(CC(=O)N1CCN(S(=O)(=O)c3cccc(Cl)c3Cl)CC1)C2=O (stereo not drawn)
  x, -2.5%, -6%, x
O=C(CSc1nnc2n1CCCN2)c1ccc([N+](=O)[O-])cc1
  -4%, 0.2%, -8%, -12
CCOC(=O)CSc1nnc(Cc2ccccc2)n1Cc1ccco1
  -3%, -1.8%, -8%, 3
CC1=C/C(=N\OS(=O)(=O)c2ccccc2)C(C)=CC1=O
  u, -0.4%, 2%, 2
O=C(N/C(=N\O)c1ccccc1)Nc1ccc(Cl)cc1
  -16%, -0.5%, -1%, -9
COc1ccc(-c2csc(NC(C)c3nc4cc(Cl)c(Cl)cc4n3CCOCCO)n2)cc1 (stereo not drawn)
  x, 0.6%, 0%, x
Cc1c(N)cc(N)cc1C(=O)O
  0%, u, u, 4
COC(=O)[C@H](Cc1ccccc1)NC(=O)N1CCCCC1C (stereo partly drawn)
  -20%, u, 6%, -19
CCOC(=O)[C@@H]1[C@H]2COc3ccccc3[C@@H]2N2C(=O)N(c3cccc(F)c3)C(=O)[C@@]12C
  x, 3.1%, u, x
Cc1c(/C=N\NC(=O)C2COc3ccccc3O2)c2ccccc2n1C (stereo not drawn)
  27%, 6.7%, 0%, -2
COc1ccc2c(c1)c(C(=O)CN1CCC(C(N)=O)CC1)c(C)n2C
  -1%, -3.0%, -4%, 1
CCN(CC)S(=O)(=O)c1ccc(NC(=O)CN(c2cccc(C)c2)S(C)(=O)=O)cc1
  -5%, -6.2%, 2%, -11
COc1ccc(OC)c(CNC(=O)CCS(=O)(=O)c2ccc3c(c2)oc(=O)n3C)c1
  -2%&1%, 1.9%, 1%, x
COc1ccccc1N1CCN(C(=O)/C=C/c2ccc(C)cc2)CC1
  -5%, 1.7%, 27%, 3
CC(C)(C)C(=O)/C=C1\NC(=O)CS1
  -2%, -4.2%, -4%, 4
CCCCCc1nnc(NC(=O)NS(=O)(=O)c2ccc(C)cc2)s1
  -2%, 1.2%, 21%, x

# Record cards (already shown):
# CCCCCc1nnc(NC(=O)NS(=O)(=O)c2ccc(C)cc2)s1 is entered as miR-21 reporter = -2%; Rango-impB inh = 1.2%; Rango release inh = 21%; GLA inh pH 4.5 = x
# CC(C)(C)C(=O)/C=C1\NC(=O)CS1 is entered as miR-21 reporter = -2%; Rango-impB inh = -4.2%; Rango release inh = -4%; GLA inh pH 4.5 = 4
# COc1ccccc1N1CCN(C(=O)/C=C/c2ccc(C)cc2)CC1 is entered as miR-21 reporter = -5%; Rango-impB inh = 1.7%; Rango release inh = 27%; GLA inh pH 4.5 = 3
